Screening results deposited in PubChem by several laboratories.
Ecoli growth – E. coli growth inhibition, primary screen, OD600. actives 0.21% (n = 330,000). OD600 absorbance (test concentration not listed). Escherichia coli growth, 23 h; active compounds read low;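 active means OD600 absorbance below the run mean of sample wells minus 3.6 SD, in any replicate, cut at about 0.56 in these data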;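 further: stock transfer was 300 nL into about 60 µL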
ALR H2O2 inh – inhibitors of human ALR sulfhydryl oxidase, primary screen, biochemical, H2O2 detection, HRP-luminol luminescence, single point | purified ALR, DTT oxidation | inhibition, % (test concentration not listed) | AID 485317, 2010 | FAD-linked sulfhydryl oxidase ALR (Homo sapiens), P55789 | actives 3.8% (n = 290,000);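 active means mean and each replicate at 75% or more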;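 further: stock transfer was 7.5 nL into about 7.5 µL; 0% = neutral wells and 100% = wells with inactivated enzyme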
Target sequence (P55789 whole entry, looked up): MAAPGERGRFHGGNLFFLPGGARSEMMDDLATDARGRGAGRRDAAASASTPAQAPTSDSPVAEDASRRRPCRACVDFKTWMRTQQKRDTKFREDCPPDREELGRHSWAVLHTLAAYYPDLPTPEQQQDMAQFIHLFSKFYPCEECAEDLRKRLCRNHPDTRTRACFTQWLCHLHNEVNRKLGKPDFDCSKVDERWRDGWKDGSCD
FGF22 binding – binders of human FGF22 protein, primary screen, FGF22 synaptogenesis inhibitor project, biophysical, thermal shift, single point. Fibroblast growth factor 22 (Homo sapiens), Q9HCT0. recombinant FGF22 thermal shift, SYPRO orange fluorescence; percent of sucrose octasulfate shift, DMSO zero. calls only at 9.99 µM. actives 1.5% (n = 340,000);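 active means melting point raised past a set limit in the mean and every replicate; three in four hits are not shown here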
Target sequence (Q9HCT0 whole entry, looked up): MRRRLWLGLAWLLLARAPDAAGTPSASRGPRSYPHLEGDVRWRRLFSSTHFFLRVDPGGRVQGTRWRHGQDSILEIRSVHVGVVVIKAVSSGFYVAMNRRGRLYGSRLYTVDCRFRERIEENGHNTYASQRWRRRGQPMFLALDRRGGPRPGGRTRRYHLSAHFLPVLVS
UCH37 DUB inh – inhibitors of human UCH37 deubiquitinase, primary screen, biochemical, Ub-AMC cleavage, fluorescence | actives 0.33% (n = 330,000) | Ubiquitin carboxyl-terminal hydrolase isozyme L5 (Homo sapiens), Q9Y5K5 | inhibition, % (test concentration not listed) | purified proteasome/UCH37;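 active means mean of two replicates above 20%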;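 further: 0% = compound-free wells with enzyme and 100% = wells lacking proteasome; stock transfer was 100 nL into about 20 µL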
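Signal – fluorescence, ex 355 nm, em 460 nm · System – Proteasome-bound UCH37 · Input – 0.15 nM proteasome as dispensed · Timing – 30 min preincubation with enzyme, 25 min cleavage at room temperature · Read-out basis – percent inhibition of cleavage signal versus uninhibited and no-proteasome wells · Medium – Tris-HCl pH 7.4 with ATP-MgCl2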
HNF4A DNA FP – change in binding of human HNF4A to DNA, primary screen, biochemical, fluorescence polarization, FITC-DNA. Hepatocyte nuclear factor 4-alpha (Homo sapiens), P41235. actives 0.3% (n = 360,000). 1 h. activity change, % at 10 µM; in the data active means activity change above about 30%, passing the limit was not always enough;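 further: controls were the assay level and a saturating level of protein; the project sought stronger binding though the title names inhibitors; some compounds called inactive have numbers as strong as hits; positive values seem to mean higher polarization but the record does not say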
B2AR ag – beta2AR agonists driving receptor internalization, primary screen, cell-based, FAP fluorogen, flow cytometry; actives 0.43% (n = 340,000); response, % (concentration not given with the values); Beta-2 adrenergic receptor (Homo sapiens), P07550; Am2.2-beta2AR cells; reference of the scale not given here; AID 504454, 2011;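 active means response above a set limit, near 3 SD of response in nonfluorescent compounds, cut at about 42% in these data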;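 further: stock transfer was 100 nL into about 11 µL; a reference agonist was the positive control; negative values mostly stem from fluorescent compounds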
Target sequence (P07550 whole entry, looked up): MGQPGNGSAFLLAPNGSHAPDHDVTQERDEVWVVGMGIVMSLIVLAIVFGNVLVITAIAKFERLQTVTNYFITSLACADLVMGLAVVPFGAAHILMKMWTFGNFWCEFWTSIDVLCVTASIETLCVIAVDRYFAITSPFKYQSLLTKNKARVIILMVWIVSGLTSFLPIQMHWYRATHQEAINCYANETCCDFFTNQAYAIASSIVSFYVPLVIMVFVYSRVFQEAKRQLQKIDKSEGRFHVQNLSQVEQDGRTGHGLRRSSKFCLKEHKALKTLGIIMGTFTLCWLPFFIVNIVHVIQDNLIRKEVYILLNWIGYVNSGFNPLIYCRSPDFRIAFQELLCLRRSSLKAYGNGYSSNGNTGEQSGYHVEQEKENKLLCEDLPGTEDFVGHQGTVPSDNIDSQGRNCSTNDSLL
rRNA inh HTS – reduced GFP signal of wild-type E. coli, primary screen, bacterial rRNA inhibitor project, GFP/RFP fluorescence, OD600, single point. AID 720706, 2013. E. coli WT GFP vs humanized-ribosome RFP mutants, 24 h; active compounds read low; DMSO median 0, no signal -100. actives 1.6% (n = 350,000). GFP signal change (wild-type ribosome), % (test concentration not listed);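 active means significant combined selectivity score with lowered wild-type GFP, culture density cut under 30%, mutant RFP and density less affected; inactive means any of these conditions unmet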; further: one replicate is shown; some compounds called inactive have numbers as strong as hits
rRNA inh HTS OD600 – also measured in rRNA inh HTS; calls as there; OD600 change, %; measured here: OD600 growth;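 optical density of the mix in the first replicate; 0 = DMSO median and -100 = no signal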
rRNA inh HTS RFP – also measured in rRNA inh HTS; calls as there; RFP signal change, %; measured here: RFP humanized mutant strains;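 first replicate; 0 = DMSO median and -100 = no signal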
* hit, by the source's call; i = inactive; / = no result given; & = joins results of further samples. An excerpt; count on the stated rates, not on these rows.

SMILES	ALR H2O2 inh	Ecoli growth	UCH37 DUB inh	rRNA inh HTS OD600	B2AR ag	HNF4A DNA FP	rRNA inh HTS RFP	FGF22 binding	rRNA inh HTS
CC(C)NC(=O)C(=O)NCCN1CCN(S(=O)(=O)c2ccc(Cl)cc2)CC1	-6	0.72	0.2	/	9	0.3	/	/	/
O=C(O)CCC(=O)Nc1ccc(Br)cc1C(=O)c1ccccc1Cl	-4	0.7	1.6	-6	-1	0.1	-1.6	/	1
Cc1ccc(S(=O)(=O)N(Cc2cccc(Cl)c2)C(=O)N2CCN(C)CC2)cc1	3	0.7	4.2	10	-4	-2.4	-1.6	i	10
Nc1nc(N2CCOCC2)nc2ccccc12	-7	0.72	-56	/	5	-2.4	/	/	/
COC(=O)c1nnn(-c2nonc2N)c1CSc1ccc(Cl)cc1	-2	0.69	-0.2	/	5	0.6	/	/	/
CCc1cccc(NC(=O)NC(=O)Cn2nnc(C(=O)OC)c2C(=O)OC)c1	1	0.69	-0.9	8	10	1.3	-1.8	i	4
COc1cc(NC(=O)NC(C)(C(F)(F)F)C(F)(F)F)cc(OC)c1OC	/	0.72	3.4	/	2	2.2	/	/	/
COc1ccccc1NC(=O)NCCN1CCCCC1	-2	0.65	-0.3	0	-2	4.7	10	i	11
Cn1c(=O)c2sccc2n(Cc2ccc(Br)cc2)c1=O	-3	0.71	-0.6	3	-1	0.4	-3.5	i	4
CC1(c2ccccc2Cl)NC(=O)N(CC(=O)NCCC2=CCCCC2)C1=O (stereo not drawn)	1	0.65	34*	/	-6	0.4	/	/	/
CC(NC=O)c1nc2ccccc2n1CCc1ccccc1 (stereo not drawn)	-1	0.67	4.3	-3	-6	1.5	-0.6	i	-6
Cc1cccc(C2C3=C(Nc4[nH]n(-c5ccccc5)c(=O)c42)c2ccccc2C3=O)c1 (stereo not drawn)	/	0.7	15	-29*	-5	-8.3	-6.2*	i	-38*
COc1ccc(/C=N/NC(=O)c2sc3nc(C)cc(C)c3c2N)cc1	-2	/	/	1	3	1.8	0.6	i	6
COc1cc(OC)nc(-n2ncc(OC)c(Br)c2=O)n1	/	0.68	2.6	13	0	-1.6	-0.6	i	6
CN(C)/C=N/c1nc2nccc(-c3ccccc3)n2n1	-5	/	/	9	-10	-0.2	-0.9	i	9
Cc1ccccc1C(=O)N1[C@@H](C(C)C)COc2cc(Br)ccc2S1(=O)=O	/	/	/	20	14	0.8	2.4	i	6
Cc1ccc(C)c(C(=O)Nc2c(C(N)=O)oc3ccccc23)c1	-3	0.76	2.0	7	-11	1.6	-2.9	i	2
CC(C)CN(C(=O)Cn1nnc(-c2ccc(Cl)cc2)n1)C1CCS(=O)(=O)C1 (stereo not drawn)	/	/	/	16	/	-2.9	2.5	i	17
COc1ccc(C(=O)NCC2COc3ccccc3O2)cc1S(=O)(=O)N1CCOCC1 (stereo not drawn)	/	0.69	1.6	0	0	-1.1	7.1	i	8
CCCCn1nc2cc(C(=O)NCc3ccco3)ccc2c1OCC	2	0.79	3.1	/	-7	2.2	/	/	/
Nc1cc(=O)nc(SCC(=O)Nc2ccccc2Cl)n1-c1ccccc1	99*	0.65	1.4	-9	-5	0.6	-2.6	i	5
COc1ccc(NC(=O)Nc2cc(C)cc(C)c2)cn1	-24	0.7	0.6	11	8	-20	4.2	/	15
Nc1nc(Nc2ccccc2)nc(NCc2ccccc2)c1[N+](=O)[O-]	86*	0.66	3.2	6.8*	-9	6.1	2.1*	i	-15*
CCc1ccc(S(=O)(=O)NCc2cn3ccccc3n2)s1	-8	0.74	-8.0	/	-10	6.0	/	/	/
c1coc(Cn2nnnc2CN2CCN(C3CCCC3)CC2)c1	0	0.71	4.5	/	8	4.4	/	/	/
S=c1[nH]nc(-c2ccc3ccccc3n2)n1-c1cc(Cl)cc(Cl)c1	10	0.62	-10	-6	2	3.1	15	i	-18
CC1(O)C(=O)c2ccccc2N(c2ccccc2)C1=O (stereo not drawn)	-4	0.71	1.4	/	0	1.1	/	/	/
O=C1C2C3c4ccccc4C(c4ccccc43)C2C(=O)N1c1ccncc1 (stereo not drawn)	/	0.6	2.1	6	1	0.4	-1.4	i	9
COC(=O)C1(C)NC(c2ccc(OC)cc2)C2C(=O)N(c3ccccc3)C(=O)C21 (stereo not drawn)	-29	0.68	3.4	11	-2	-6.5	0.0	i	10
CCOC(=O)c1c(C)[nH]c(C(=O)COC(=O)CCS(=O)(=O)c2ccc(C)cc2)c1C	-6	0.68	4.8	8	6	4.3	1.1	i	8
CC(C)(C)OC(=O)N1CCCC(C(=O)Nc2ccc(C(=O)NC3CC3)cc2)C1 (stereo not drawn)	/	/	/	/	2	-0.9	/	i	/
CCn1c(SCC(=O)N/N=C/c2ccc(C)s2)nc2ccccc21	-7	/	/	/	-12	1.8	/	/	/
CS(=O)(=O)Nc1ccc2c(c1)[C@@H]1C[C@@H](CC(=O)NCc3cccnc3)O[C@H](CO)[C@@H]1O2	/	/	/	6&5	/	-1.5	-2.5&1.0	i	5&3
NCCCCC(=O)O	-5	0.68	1.1	/	-9	4.2	/	i	/
O=C(Nc1cccc(Br)c1)c1ccc(OC2CSC2)cc1	-5	0.68	0.9	/	/	/	/	/	/
COc1cc(/C=N/NC(=O)Cc2csc(N3CCOCC3)n2)cc(OC)c1O	99*	/	/	3	5	2.3	3.7	i	7
O=C(Nc1nnc(Cc2ccccc2)s1)c1ccco1	-10	0.7	0.9	9	-15	0.0	1.9	/	8
CNC(=O)N(O)C1N(/N=C/c2cc(Br)ccc2O)C(=S)SC1(C)C (stereo not drawn)	24	/	/	-10	12	-2.6	10	i	-14
O=C(/C=C/c1ccc(Cl)cc1)OCC(=O)c1ccc[nH]1	/	/	/	7	-3	2.6	1.1	i	7
COc1cc(C2=NOC(C(=O)Nc3cccnc3)C2)cc(OC)c1OC (stereo not drawn)	3	0.71	2.2	/	-6	4.8	/	i	/
COc1ccc(/C=C/C(=O)N(Cc2ccccc2)c2ccccn2)cc1OC	-8	0.72	-7.5	14	16	2.9	0.2	i	14
O=S(=O)(NCc1ccccc1)c1ccc2ccccc2c1	-26	0.68	3.9	-26	-17	2.8	-1.0	i	-10
CC(NC(=O)C(C)(C)C)C(c1cccs1)N1CCOCC1 (stereo not drawn)	-6	0.68	3.6	3	-4	-1.9	-4.2	i	9
CC(C)COc1ccc(/C(O)=C2/C(=O)C(=O)N(CCN(C)C)C2c2ccncc2)cc1 (stereo not drawn)	-7	/	7.3	/	3	-0.1	/	/	/
C(=N\Nc1nc(N2CCOCC2)nc(N2CCOCC2)n1)/c1cccnc1	0	/	/	/	-3	3.6	/	/	/
O=c1c(Cl)c(N2CCOCC2)cnn1-c1nc2ccccc2[nH]1	-11	0.67	13	8	-23	2.4	-3.2	i	5
Cc1cc(C)nc(NCCO)n1	-8	0.7	4.0	/	1	0.8	/	/	/
O=C1CC(Cc2ccccc2)C(=O)N1Cc1ccco1 (stereo not drawn)	24	/	-0.5	/	1	1.0	/	/	/

Profiles as entered above.
Record of `O=S(=O)(NCc1ccccc1)c1ccc2ccccc2c1` : ALR H2O2 inh: -26; Ecoli growth: 0.68; UCH37 DUB inh: 3.9; rRNA inh HTS OD600: -26; B2AR ag: -17; HNF4A DNA FP: 2.8; rRNA inh HTS RFP: -1.0; FGF22 binding: i; rRNA inh HTS: -10
Record of `CC(C)COc1ccc(/C(O)=C2/C(=O)C(=O)N(CCN(C)C)C2c2ccncc2)cc1` (stereo not drawn) : ALR H2O2 inh: -7; Ecoli growth: /; UCH37 DUB inh: 7.3; rRNA inh HTS OD600: /; B2AR ag: 3; HNF4A DNA FP: -0.1; rRNA inh HTS RFP: /; FGF22 binding: /; rRNA inh HTS: /

(listing goes on)
SMILES	ALR H2O2 inh	Ecoli growth	UCH37 DUB inh	rRNA inh HTS OD600	B2AR ag	HNF4A DNA FP	rRNA inh HTS RFP	FGF22 binding	rRNA inh HTS
COc1ccc(C(=S)N2CCN(c3cccc(Cl)c3)CC2)cc1	-23	0.66	2.0	-13	6	-1.8	4.8	i	-14
CS(=O)(=O)c1ccc2nc(NC(=O)CN3C(=O)NC4(CCCC4)C3=O)sc2c1	1	0.74	3.4	-3	-1	0.6	-3.4	i	-8
CC(C)(C)C1CCC(CN2CCC(CN3C(=O)C(=O)NC[C@@H]3Cc3ccccc3)CC2)CC1 (stereo partly drawn)	/	/	/	0	11	2.8	6.1	i	0
COc1ccc(-n2nc(C(=O)NCC(=O)N3CCN(Cc4ccccc4)CC3)c3ccccc3c2=O)cc1OC	-2	0.68	-29	0	18	-0.4	-0.7	i	2
Cc1cc(C)n(C(=O)COc2ccc(Cl)cc2Cl)n1	-5	0.7	0.4	/	-1	1.7	/	/	/
O=C(Nc1ccc(S(=O)(=O)Nc2ncccn2)cc1)c1ccc2ncsc2c1	99*	0.69	4.1	-4	7	20	-0.8	i	6
Nc1ccn([C@@H]2O[C@H](CNCc3cc(Cl)ccc3OCc3ccc(Cl)cc3)[C@@H](O)[C@H]2O)c(=O)n1	/	/	/	-19	/	-1.6	0.0	i	-12
COc1ccc(-c2noc(N3CCC(C(=O)N(C)c4ccccc4C)CC3)n2)cc1	-8	0.7	6.1	-10	18	2.0	-3.1	i	3
CCOc1ccccc1C(=O)OCC(=O)Nc1ncc(C(F)(F)F)cc1Cl	-11	0.72	0.7	/	-5	-1.0	/	/	/
CCS(=O)(=O)Nc1ccc2c(c1)OCO2	10	0.69	3.7	7	3	-1.6	2.8	i	10
NC(=O)c1nn(CC(=O)Nc2cccc(S(=O)(=O)N3CCCCCC3)c2)c(=O)c2ccccc12	4	0.66	5.7	5	-3	1.8	10	i	-3
O=C(CCNC(=O)c1ccc([N+](=O)[O-])cc1)NNC(=O)c1ccccc1F	-6	0.69	1.4	10	1	0.1	-1.9	i	5
C=CCSc1nnc2c(n1)OC(c1ccccn1)N(C(C)=O)c1ccccc1-2 (stereo not drawn)	-10	0.8	12	/	13	-2.2	/	/	/
COc1ccc(OC)c(NC(=O)C2C3C=CC(C3)C2C(=O)NCc2ccccn2)c1 (stereo not drawn)	4	0.7	-1.5	/	-4	0.9	/	/	/
Cc1ccc2[nH]c(=O)c(C3=NN(C(=O)CCC(=O)O)C(c4cccs4)C3)c(-c3ccccc3)c2c1 (stereo not drawn)	2	0.67	-46	-6	-2	0.3	-3.5	i	-18
CCN(CC)S(=O)(=O)c1ccc(C(=O)Nc2cccc(C)c2)cc1	-12	0.68	3.8	/	0	3.5	/	/	/
CCC(=O)Nc1ccc(NC(=O)CSc2nc3cc4c(cc3cc2C)CCC4)cc1	-2	0.75	4.5	/	-8	-0.7	/	/	/
CCOC(=O)c1c(C)n(C)c2c1cc(OC(C)=O)c1ccccc12	-12	0.61	-4.0	3	-2	1.4	0.7	i	7
COc1cc2c(cc1OC)C(c1ccc([N+](=O)[O-])cc1)NCC2 (stereo not drawn)	/	0.68	2.1	4	13	-0.4	0.0	i	6
CN(C)c1cc[n+](CC(=O)Nc2ccc(Cl)c([N+](=O)[O-])c2)cc1	-13	0.73	1.5	-7	-4	0.4	-0.6	i	-14
